Bioassay records: PubChem, several laboratories
RN4220 kill: S. aureus RN4220 growth inhibition; OD600, 16 h; inhibition, % (concentration not given with the values); hit rate 0.33% among 330,000;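 active means z-score of -3 or lower and OD600 up to 0.18 on both plates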;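 further: plate controls were untreated cells for no effect and reference antibiotic for full effect; stock transfer was 100 nL into about 80 µL; one replicate is shown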
PrP 5UTR inh: suppresses PrP 5' UTR mRNA reporter expression | cell-based PrP 5' UTR mRNA reporter, plate reader | hit rate 0.35% among 340,000 | AID 488862 | inhibition, % (concentration not given with the values);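 active means every replicate at 50% or more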;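 further: 0 = median of the neutral control wells; tested in H4 reporter cells; numbers are from one replicate; inactives centre near -14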
BJeLR viability: BJeLR cell viability loss | BJeLR (HRASV12) viability, CellTiter-Glo ATP luminescence, 48 h; reference of the scale not given here | hit rate 0.17% among 300,000 | AID 1554 | inhibition, % (no concentration beside the values);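 active means replicate mean above 50%; inconclusive means above 50% but judged a plate artefact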;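 further: 50 nL library stock added to about 25 µL; numbers are from one replicate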
ugtP null kill: growth inhibition of S. aureus ugtP deletion strain. S. aureus RN4220 ugtP deletion, OD600 growth, 16 h; some inactives read as strong as hits. hit rate 0.54% among 330,000. AID 1259309. growth inhibition, % (concentration not given with the values);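 active means z-score under -3 and OD600 up to 0.15 on both plates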;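 further: plate controls were untreated wells for no effect and antibiotic for full effect; wells of about 80 µL received 100 nL stock; the first replicate is given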
Mtb hypoxia rep: inhibitors of hypoxia-regulated fluorescent reporter in Mycobacterium tuberculosis; M. tuberculosis hypoxia-regulated fluorescent reporter, fluorescence; AID 1159583; hit rate 0.1% among 300,000; fluorescence inhibition, % (test concentration not listed);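 active means 35 to 45% if threefold the growth effect, above 45% if 1.5-fold the growth effect; inactive means the rest, general growth blockers included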;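 further: wells of about 50 µL received 100 nL stock; 0% = vehicle wells and 100% = reference inhibitor wells; whole bacteria with a GFP reporter of the hypoxia response; strong numbers were not always called active; many hits fall short of the cut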
Bead autofluor: counter-screen for toxin protease inhibitors: compound fluorescence; compound autofluorescence counterscreen, microsphere flow cytometry; stronger effect = higher value; fluorescence intensity (test concentration not listed); hit rate 3.1% among 360,000; AID 624483;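 active means at least 3 SD above the mean of all compounds, about 16000 in these data; inconclusive means too few beads counted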;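 further: 100 nL of 1 mM stock went into each well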
Mtb hypoxia rep growth: also measured in Mtb hypoxia rep; calls as there; growth inhibition, %; measured here: M. tuberculosis growth (absorbance);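 0% = vehicle and 100% = reference antibiotic; read after six days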
An asterisk follows results filed as active; ? = inconclusive; · = not tested or not shown; & = joins results of further samples.

SMILES	RN4220 kill	PrP 5UTR inh	BJeLR viability	ugtP null kill	Mtb hypoxia rep	Mtb hypoxia rep growth	Bead autofluor
Cc1cc(-c2n[nH]c(=S)n2/N=C/c2ccccc2[N+](=O)[O-])n[nH]1	·	-20.0	-3.9	·	·	·	2855
COc1cc2c(cc1O)CC1c3c(cc(O)c(OC)c3-2)CCN1C (centres undefined)	8.8&5.4	-10.3	7.2	-5.0&-4.2	3.7	1.7	4816
COc1ccc(-c2noc(-c3ccc4c(c3)OCO4)n2)cc1	6.1	-108.2	-10.7	-0.2	3.2	6.8	4547
Cc1cc(NC(=O)CSc2nc(C)c(C)n2CC(C)C)no1	-2.2	-3.9	·	-6.4	5.2	0.6	3136
CCCCNC(=S)N(C)/N=C/c1ccc(OCC(=O)Nc2c(C)cc(C)cc2C)c(OC)c1	·	0.7	1.7	·	·	·	2000
CC(=NNC(=O)COc1ccccc1-c1ccccc1)c1ccccn1	82.0	·	·	73.9	12.5	17.7	·
CN(C)c1cc[n+](CCC(=O)Nc2cccc([N+](=O)[O-])c2N)cc1	6.9	-41.9	-12.2	11.7	-2.4	0.1	9071
COc1cccc(NC(=O)N2CCC(NC(=O)C(Cc3cccc(C)c3)NC(C)=O)CC2)c1 (centres undefined)	·	-15.3	7.7	·	·	·	3849
CCC(=O)N(CCN1CCOCC1)Cc1cc2cc3c(cc2nc1Cl)OCO3	2.7	-17.4	-2.2	5.7	-0.8	9.2	2033
O=S(=O)(CC(CN1CCCCC1)N1CCCCC1)c1ccccc1 (centres undefined)	6.2	21.9	-1.4	10.3	2.1	-1.9	2610
O=C1NN(c2cccc(Br)c2)C(=O)/C1=C\c1ccc(N2CCOCC2)cc1	1.5	-12.7	4.8	1.0	-0.9	3.2	4191
O=c1c(Cl)cc(Cl)nn1-c1ccccc1	7.3	-2.4	3.0	9.6	21.5	15.6	2462
COc1cccc(NC(=O)c2ccccc2NC(=O)c2ccncc2)c1	3.5	-9.9	·	-8.8	11.7	5.6	3787
Cc1nc(N2CCN(C)CC2)c2c(C)c(C(=O)Nc3ccc(C)c(F)c3)sc2n1	-0.4	·	4.9	-3.8	2.4	12.2	10978
Cc1cc(C)n2nc(SCc3nnc(-c4ccccc4Br)o3)nc2n1	1.1	1.0	-34.6	4.1	-0.5	-5.4	4049
CC(NC(=O)COc1ccccc1)C(=O)OCC(=O)c1cc2ccccc2o1 (centres undefined)	0.0	-4.8	1.5	-6.0	3.4	10.3	3845
CCOC(=O)N1CCN(c2c(N3CCN(c4ccc(F)cc4)CC3)c(=O)c2=O)CC1	3.1	-11.9	0.9	3.8	16.8	12.1	5395
O=S1(=O)NC(=NCC(c2ccco2)N2CCCCC2)c2ccccc21 (centres undefined)	5.0	-19.6	-1.9	5.0	8.2	-1.2	5207
O=C(NCc1ccccc1)Nc1cccn(Cc2ccccc2F)c1=O	0.0	-9.2	-0.6	5.1	3.7	3.3	10826
O=C(CCc1ccccc1)NN=Cc1cc(Br)ccc1O	0.3	·	·	12.0	6.9	1.5	·
O=c1[nH]ncc(NN=Cc2ccccc2)c1Cl	11.1	·	·	12.5	8.5	1.4	·
COc1ccc(S(=O)(=O)N2CCN(C)CC2)cc1Br	1.4	2.1	9.0	2.6	6.9	3.0	4069
CCCN(Cc1cc2ccc(C)cc2[nH]c1=O)C(=O)c1cccnc1	-1.1	-12.1	2.3	0.7	13.1	10.1	4684
O=C(N/N=C/c1sc(=O)n(-c2ccccc2)c1Cl)c1ccncc1	·	-27.5	-2.2	·	·	·	2902
O=C(C=CNc1ccc(F)cc1)c1cccs1	4.3	·	·	-6.2	6.0	1.3	·
CC1C2Cn3c(nc4ccccc43)C1N(C1CCCCC1)O2 (centres undefined)	0.7	·	·	1.0	11.8	-0.2	·
O=C(COc1ccccc1[N+](=O)[O-])NN=Cc1cccc(OC(=O)c2ccc3c(c2)OCO3)c1	4.6	·	·	1.5	6.3	-1.2	·
O=C(c1cccnc1Cl)N1CCOCC1	4.0	-15.6	-7.5	5.8	-0.3	5.1	4160
COc1ccc(/C=N/NC(=O)c2ccc3c(c2)OCCO3)c(OC)c1	·	-1.0	1.1	·	·	·	5444
COc1ccc(C(CC(=O)Nc2cc(C)ccn2)N2Cc3ccccc3C2=O)cc1 (centres undefined)	5.1	-34.0	2.7	8.9	-9.7	6.1	3901
CCn1nnnc1SCC(=O)Nc1nc2ccccc2s1	2.4	-26.4	2.7	4.7	0.6	4.1	2749
O=C(Nc1ccc(Cl)cc1)c1cc2c(cc1O)[nH]c1ccccc12	95.0*	-14.1	18.6	97.9*	15.1	7.0	3221
COc1cccc(CNC(=O)Cn2ccc3cc(S(=O)(=O)N4CCCC4)ccc32)c1	-4.6	-36.0	4.9	-4.9	-9.7	-4.6	6041
Nc1nnc(SCC(=O)N2CCCCC2)s1	1.5	-23.8	3.3	12.5	12.7	-3.4	5159
COc1ccc(OC)c2[nH]c(=O)c(CCNC(=O)C(=O)c3c[nH]c4ccccc34)cc12	2.9	-12.1	-2.8	-12.8	0.0	2.8	3124
Cc1ccc2c(c1)C1CN(C)CCC1N2C(=O)Nc1cccc(C(F)(F)F)c1 (centres undefined)	-0.4	-1.4	-0.1	-3.6	·	·	3147
Cc1cc(C(=O)NN=Cc2ccc(C)s2)n[nH]1	5.2	·	·	5.6	15.0	7.1	·
Cc1cc(C)c(S(=O)(=O)N2CCN(c3ccccc3)CC2)c(C)c1	-2.9	-6.8	-0.2	16.3	7.4	17.6	4183
CC1CCCC(C)N1C(=O)COC(=O)c1ccc(F)c(S(=O)(=O)N2CCOCC2)c1 (centres undefined)	1.4	-23.3	1.1	1.2	6.4	0.5	6331
O=C(CSc1nnc(-c2ccc(Cl)cc2)n1-c1ccccc1)N/N=C/c1ccccc1C(=O)O	·	-25.3	-2.3	·	·	·	4314
Cc1c(Cc2c(Cl)cccc2Cl)c(=O)ccn1C(C)c1ccccc1 (centres undefined)	98.4*	-29.6	·	99.5*	9.0	9.9	3062
CC(=O)OCc1c(F)c(F)c(-n2nc(C)cc2C)c(F)c1F	-4.5	-11.4	6.3	2.9	·	·	2811
Cc1ccc(NC(=O)CN(C)C(=O)Cc2ccc3c(c2)CCC3)cc1	1.4	-14.8	·	7.0	3.5	16.2	?
Cc1ccc(NC(=O)C2CC(=O)N(C(C)C)C2)cc1C (centres undefined)	-5.8	-14.0	-0.4	-0.6	-5.5	13.3	3761
C[C@@H](NS(=O)(=O)c1ccc(Br)cc1F)[C@@H](O)c1ccccc1	1.8	-14.9	·	5.2	3.0	4.7	4235
Cc1ccc(/C=N\NC(=O)CC(=O)NCCc2ccccc2)cc1	·	-1.2	-2.8	·	·	·	3976
Cc1ccc(S(=O)(=O)Nc2ccccc2C(=O)N2CCCCC2C)c(C)c1NS(C)(=O)=O (centres undefined)	4.0	6.0	-3.6	3.6	-12.4	-8.3	3955
Cc1ccc(Cn2nnc3c(=O)n(Cc4cccc(C)c4)cnc32)cc1	1.4	-18.0	5.5	-0.5	19.8	9.3	6866
Cc1ccc(C)c(NC(NC(=O)c2cccnc2)C(Cl)(Cl)Cl)c1 (centres undefined)	2.0	-29.8	4.8	-16.8	-9.4	-3.9	9456
O=C(Nc1ccnc(-c2cccnc2)n1)c1ccccc1Cl	-0.8	-9.6	2.9	-1.7	·	·	2794
CCOc1ccccc1NS(=O)(=O)c1cccc2nsnc12	6.9	-8.7	-0.5	2.9	17.4	-3.0	6717
CCc1ccc(C(=O)NNC(=O)CCN2CCN(Cc3ccccc3)CC2)cc1	4.2	37.7	4.1	6.1	11.8	1.1	4718
O=C(Nc1ccccc1)N1CCC(C(=O)N2CCN(S(=O)(=O)c3cccc(F)c3)CC2)CC1	-1.9	-25.2	9.2	-4.4	-2.2	-10.2	9058
O=C1CCCC2=C1C(c1ccncc1)Nc1ccccc1N2 (centres undefined)	1.2	-15.3	8.3	-1.6	·	·	5602
Cc1cccc(C)c1NC(=O)CN(C)C(=O)CSCc1c(C)noc1C	-0.7	-3.3	-18.1	4.4	2.4	0.5	4253
CSCC(=O)N1CCCC(CO)(CCCc2ccccc2)C1 (centres undefined)	6.3	-15.3	2.5	12.5	-1.7	3.5	3188
COc1cccc(/C=N\NC(C)=O)c1OC/C=C/c1ccccc1	·	-21.2	-3.5	·	·	·	5810
COCC(C)NC(=O)c1cc2c(ccc3ccccc32)oc1=O (centres undefined)	4.7	-32.6	5.4	7.7	11.4	5.5	3156
COc1ccc(C(=O)NCCCOc2cccnc2)cc1OC1CCN(C(C)=O)CC1	3.3	-5.7	-1.2	16.5	6.3	3.9	5900
O=C(Nc1cc(Cl)ccc1F)c1ccc(-n2cncn2)c([N+](=O)[O-])c1	-6.5	-6.5	1.0	13.6	1.6	1.0	3999
Later entries:
SMILES	RN4220 kill	PrP 5UTR inh	BJeLR viability	ugtP null kill	Mtb hypoxia rep	Mtb hypoxia rep growth	Bead autofluor
CC(=O)c1ccc(OCC(=O)NCC(c2ccco2)N2CCCCC2)cc1 (centres undefined)	0.5	-25.7	1.3	-13.1	-1.5	7.2	5953
CCOC(=O)Oc1ccc(C(=O)OCCCN(C)C)cc1OC	-2.1	-43.0	-8.7	-0.7	-0.4	-5.8	2517
O=C(CCc1ccccc1)N[C@@H]1c2ccccc2CC[C@@H]1OCc1ccccc1	2.9	-1.8	·	9.9	-5.2	1.5	4030
COc1ccccc1-n1c(CNC(=O)c2ccco2)nnc1SCC(=O)Nc1cc(C)ccc1C	2.3	-59.9	·	19.2	14.7	12.2	3594
S=C(c1cn(CCOc2cccc3ccccc23)c2ccccc12)N1CCCC1	2.6	-15.5	-4.8	6.8	14.8	8.3	4976
C[C@@H](C(=O)Nc1ccc2ccccc2c1)[C@@H]1C[C@@]1(C)[C@@H](NC(=O)c1ccccc1)c1ccccc1	·	-12.4	-3.4	·	·	·	4524
CCOC(=O)c1ccc(S(=O)(=O)Nc2cc(C(=O)O)ccc2Cl)cc1	-6.9	-12.5	-2.8	-5.9	-11.0	-7.6	4551
O=[N+]([O-])c1ccc(O)c(-c2cc(C(F)(F)F)nc(-c3ccccc3)n2)c1	100.2*	1.6	68.0*	98.8*	·	·	3524
O=C(c1ccccc1)N1CCC(c2nc3c(nnn3Cc3ccccc3Cl)c(=O)[nH]2)CC1	9.6	-9.4	-7.2	38.3	2.2	4.1	10838
COc1ccc(-c2cc(C(=O)N3CCN(Cc4ccc5c(c4)OCO5)CC3)on2)cc1OC	3.8	-84.7	2.7	5.3	-3.4	-4.1	5739
COc1ccc(S(=O)(=O)N2CCOCC2)cc1NC(=O)CCOc1ccc(C(C)(C)C)cc1	11.0	-10.1	·	5.3	4.2	2.0	?
Cn1c(O)c(N=NC(=O)CNC(=O)c2ccccc2)c2ccccc21	4.5	-33.6	1.7	0.0	18.4	3.1	3636
CCCCC(=O)Nc1c(-c2cccc(OC)c2)c(=O)c2ccccc2n1C	9.7	3.5	1.5	11.8	0.1	-4.9	3045
CCOC(=O)c1cnc(-n2nc(C)cc2C)nc1Nc1cccc(C(=O)O)c1	3.0	8.1	5.9	-3.5	-9.5	2.3	21795*
FC(F)(F)c1ccc(C=Nn2c(COc3ccccc3)n[nH]c2=S)cc1	8.3	·	·	5.5	7.8	6.1	·
O=C(CCc1ccccc1)NCc1ccccn1	6.0	·	-8.8	9.0	8.7	11.7	11366
CS/C(N)=N/C(=S)Nc1cccc(Cl)c1	-4.9	-32.2	4.5	-5.9	10.4	5.9	6394
COC(CNC(=O)C1CCN(S(=O)(=O)c2cccc3nsnc23)CC1)OC	0.3	-1.4	-1.7	0.2	-10.1	10.8	5380
Cc1ccc(/C=C2\SC(=S)N(CC(=O)Nc3cccnc3)C2=O)cc1	5.1	-8.1	-4.9	-3.7	8.5	7.2	2912

By substructure, the compounds so far containing a COOH group (three)
SMILES	RN4220 kill	PrP 5UTR inh	BJeLR viability	ugtP null kill	Mtb hypoxia rep	Mtb hypoxia rep growth	Bead autofluor
O=C(CSc1nnc(-c2ccc(Cl)cc2)n1-c1ccccc1)N/N=C/c1ccccc1C(=O)O	·	-25.3	-2.3	·	·	·	4314
CCOC(=O)c1ccc(S(=O)(=O)Nc2cc(C(=O)O)ccc2Cl)cc1	-6.9	-12.5	-2.8	-5.9	-11.0	-7.6	4551
CCOC(=O)c1cnc(-n2nc(C)cc2C)nc1Nc1cccc(C(=O)O)c1	3.0	8.1	5.9	-3.5	-9.5	2.3	21795*
